PNC assembly inh: blocks assembly of the perinucleolar compartment; PC3M PTB-GFP, PNC prevalence imaging, 16 h; active compounds read low; activity change (PNC), negative = inhibition, % at 10 µM; 140,000 compounds, 3.1% hits;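 active = readout at or below -70, meaning at least 70% loss of cells showing the perinucleolar compartment, a nuclear body marking cancer cells; inconclusive = readout between -30 and a set limit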;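 note: plate controls were DMSO wells for no effect and camptothecin positive control wells for full effect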
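Compounds are pinned in duplicate onto adhered PC3M cells stably expressing GFP-tagged PTB and incubated 16 h at 37 C. Cells are then fixed, nuclei stained with Hoechst, and PNC-positive cells counted.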
ALOX15B inhib: inhibitors of human 15-lipoxygenase 2 (ALOX15B); AID 881; purified 15hLO-2, xylenol orange hydroperoxide absorbance; 110,000 compounds, 0.56% hits; O15296; Potency, µM (series often up to 57.1 µM), inactives show at the highest dose activity change, negative = inhibition, hits mostly inhibitors; active = well fitted inhibition curve with a large enough effect; inconclusive = small, poorly fitted or top-dose-only effect; inactive = no such curve, though single readings can be large or run the other way; note: potency is the fitted concentration of half-maximal effect; nearly all actives have a fitted effect of over 60% in size; many of its hits are not listed in these tables
Target sequence (O15296 whole entry, looked up): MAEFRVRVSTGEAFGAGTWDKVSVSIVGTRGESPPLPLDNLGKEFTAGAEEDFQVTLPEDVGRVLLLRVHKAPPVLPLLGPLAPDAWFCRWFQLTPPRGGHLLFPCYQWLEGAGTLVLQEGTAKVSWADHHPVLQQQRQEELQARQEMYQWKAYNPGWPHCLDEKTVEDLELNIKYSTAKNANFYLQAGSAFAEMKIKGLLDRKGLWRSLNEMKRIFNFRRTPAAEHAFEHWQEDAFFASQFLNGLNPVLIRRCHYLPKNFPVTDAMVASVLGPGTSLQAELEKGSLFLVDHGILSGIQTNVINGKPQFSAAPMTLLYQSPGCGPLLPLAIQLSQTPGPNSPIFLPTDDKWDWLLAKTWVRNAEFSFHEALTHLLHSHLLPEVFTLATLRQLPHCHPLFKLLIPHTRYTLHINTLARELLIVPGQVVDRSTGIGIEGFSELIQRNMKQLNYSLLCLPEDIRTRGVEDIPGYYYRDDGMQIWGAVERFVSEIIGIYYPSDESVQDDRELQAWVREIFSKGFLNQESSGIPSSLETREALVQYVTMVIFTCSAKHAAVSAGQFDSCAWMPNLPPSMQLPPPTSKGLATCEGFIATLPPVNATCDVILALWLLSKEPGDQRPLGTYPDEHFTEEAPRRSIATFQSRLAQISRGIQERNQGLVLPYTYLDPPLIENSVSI
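Purified human 15hLO-2 (50 nM) preincubated 15 min with compound, then 45 uM arachidonic acid for 90 min at RT in 25 mM Hepes pH 7.5, 0.01% Triton X-100. Hydroperoxide detected by Fe-xylenol orange; 573/405 nm absorbance ratio.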
Active calls of the source: *; ? = inconclusive; / = no result given; & = joins results of further samples; [ ] = dose if it differs, or a comment. Unless noted, % is set by controls: 0 for no effect and ±100 for the full control effect. Some of the compounds tested, and most or all hits are left out here.

1: Cn1c(Nn2cnnc2)nc2ccccc21
2: COc1cc2ccccc2cc1C(=O)Nc1ccc(Cc2ccncc2)cc1
3: O=C(NCc1cn(-c2ccccc2)nc1-c1ccccc1)c1cccc([N+](=O)[O-])c1
4: Cc1nnnn1-c1cccc(C(=O)O)c1
5: COc1cccc(CNc2ccc(S(=O)(=O)Nc3nccs3)cc2)c1O
6: CN1[C@@H]2CC[C@H]1CC(OC(=O)C(CO)c1ccccc1)C2 (stereo not given in full)
7: FC(F)(F)c1cc(-c2ccco2)nc2ncnn12
8: CCc1ccc(Cn2nnc(C(=O)NCc3ccccc3OC)c2N)cc1
9: O=C(NC1CCS(=O)(=O)C1)c1c(NC(=O)C2COc3ccccc3O2)sc2c1CCCC2 (stereo not given)
10: COC(=O)c1cc(CSc2nc3ccc(C)cc3[nH]2)oc1C

Assay by compound | 1 | 2 | 3 | 4 | 5 | 6 | 7 | 8 | 9 | 10
PNC assembly inh | -13 | ? | 36 | -19 | -24 | -20 | 8 | 9 | ? | 20
ALOX15B inhib | -2% | / | / | -2% | -24% | 10%[0.0915 µM] | / | -2% | -13% | -7%

In a second layout: 2 of the compounds above
The line under a structure holds: PNC assembly inh | ALOX15B inhib
#8 CCc1ccc(Cn2nnc(C(=O)NCc3ccccc3OC)c2N)cc1
→ 9 | -2%
#9 O=C(NC1CCS(=O)(=O)C1)c1c(NC(=O)C2COc3ccccc3O2)sc2c1CCCC2 (stereo not given)
→ ? | -13%

The list continues:
11: Cc1cc(NS(=O)(=O)c2ccc(N)cc2)no1
12: O=C(Nc1nc2ccc(Cl)cc2s1)C1CCCO1 (stereo not given)
13: Cc1nc(NS(=O)(=O)c2ccccc2)sc1NC(=O)OC(C)C
14: COc1ccc(NC(=S)Nc2ccccc2)cn1
15: CCOC(=O)CN1CC23C=CC(O2)C(C(=O)NC2CCCCC2)C3C1=O (stereo not given)
16: CN(C)c1ccc(O)c2c1C[C@H]1C[C@H]3[C@@H](N(C)C)C(=O)C(C(N)=O)=C(O)[C@]3(O)C(=O)C1=C2O
17: C/C(=N\NC(=O)CCn1nc(C)cc1C)C(C)(C)C
18: COC(=O)C1=C(C)N(C(C)c2ccccc2)C(=O)C1 (stereo not given)
19: O=C(c1ccc(Br)cc1)c1cc(-c2ccccn2)c(N2CCOCC2)s1
20: O=C(CCN1C(=O)c2ccccc2C1=O)N1CCN(C2c3ccccc3-c3ccccc32)CC1

Assay by compound | 11 | 12 | 13 | 14 | 15 | 16 | 17 | 18 | 19 | 20
PNC assembly inh | -16 | 16 | 2 | -16 | 1 | / | ? | 3 | -25 | 42
ALOX15B inhib | -7% | ? | -15% | / | -4% | 11%[25.6 µM] | / | / | 14% | 9%

5 compounds picked at random from those above:
20: O=C(CCN1C(=O)c2ccccc2C1=O)N1CCN(C2c3ccccc3-c3ccccc32)CC1
11: Cc1cc(NS(=O)(=O)c2ccc(N)cc2)no1
19: O=C(c1ccc(Br)cc1)c1cc(-c2ccccn2)c(N2CCOCC2)s1
14: COc1ccc(NC(=S)Nc2ccccc2)cn1
16: CN(C)c1ccc(O)c2c1C[C@H]1C[C@H]3[C@@H](N(C)C)C(=O)C(C(N)=O)=C(O)[C@]3(O)C(=O)C1=C2O

Assay by compound | 20 | 11 | 19 | 14 | 16
PNC assembly inh | 42 | -16 | -25 | -16 | /
ALOX15B inhib | 9% | -7% | 14% | / | 11%[25.6 µM]

Entries of single compounds as entered above. Order of values: PNC assembly inh | ALOX15B inhib
Entry for O=C(CCN1C(=O)c2ccccc2C1=O)N1CCN(C2c3ccccc3-c3ccccc32)CC1 : 42 | 9%
Entry for C/C(=N\NC(=O)CCn1nc(C)cc1C)C(C)(C)C : ? | /

Following part
21: O=C(N/N=C/c1ccc(O)c(O)c1)c1ccc(CSc2cccc3cccnc23)cc1
22: CC(=O)Nc1ccc(Oc2ncccn2)cc1
23: O=C(O)CSc1nnc(Cn2c(=O)sc3ccccc32)n1-c1cccc(Cl)c1
24: CC(C)COC(=O)Nc1nnc(SCCOc2ccccc2)s1
25: COc1cc(NS(C)(=O)=O)c(OC)cc1NC(=O)c1cccc(F)c1
26: OCC(O)CO
27: CCC(C)(C)NC(=O)CC(c1ccc(OC)cc1)n1cccc1 (stereo not given)
28: COc1ccc(OCCSc2nnnn2C2CCCCC2)cc1
29: NS(=O)(=O)c1ccc(NC(=O)CN2CCN(Cc3ccccc3)CC2)cc1
30: Cn1c(CCN2CCN(c3ccccc3)CC2)nc2cc(NC(=O)c3ccco3)ccc21

Assay by compound | 21 | 22 | 23 | 24 | 25 | 26 | 27 | 28 | 29 | 30
PNC assembly inh | ? | 10 | ? | -9 | -3 | / | -11 | ? | -21 | 38
ALOX15B inhib | ? | -11% | 4% | 0% | 1% | -8%&-4% | -8% | -4% | -14% | /

31: CCn1c2ccccc2c2cc(NC(=O)C(C)C)ccc21
32: O=C(O)CCC(=O)C(=O)O (tested in a mixture with another compound)
33: CCn1c(CNc2ccc(OC)cc2)nnc1SCC(=O)N1CCCc2ccccc21
34: O=C(O)CC(O)C(=O)O (stereo not given)
35: Cc1c(OCC(=O)OC(C)C)ccc2c3c(c(=O)oc12)CCC3
36: COc1ccc(C2=NN(C)C(=NCc3ccccc3)SC2)cc1

Assay by compound | 31 | 32 | 33 | 34 | 35 | 36
PNC assembly inh | 64 | / | -4 | 55 | -5 | 16
ALOX15B inhib | -16% | -2% | -6% | / | -8% | 5%
